Bioassay records: PubChem, several laboratories
CSC inhib: cancer stem cell viability inhibitors, primary screen, luminescence | cancer stem cell-like cells viability | inhibition, % at 7.5 µM | 1.1% of 300,000 active | AID 2717, 2010;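 active = mean at 75% or more and at least half the replicates too; inconclusive = mean and replicates disagree; tested in HMLE shEcad cells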;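 also: 0% = median of negative and 100% = median of positive control wells; the first replicate is given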
MT1-MMP act inh: blockers of MT1-MMP proenzyme processing, primary screen, HT1080 RFP-PRO-GFP cells, GFP/RFP fluorescence; Matrix metalloproteinase-14 (Homo sapiens), P50281; GFP/RFP ratio fluorescence, overnight; percent of plate control window, DMSO zero; GFP/RFP ratio change, % at 20 µM; 0.061% of 360,000 active; AID 651647, 2012;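 active = GFP/RFP ratio change of at least 30% with cell ATP level not reduced by more than half and red fluorescence within 50% of control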; also: strong numbers were not always called active
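Read-out: GFP/RFP fluorescence ratio; Test system: RFP-PRO-GFP reporter HT1080 cells; Compound dosing: single-point 20 µM compound, 1% DMSO; Times: overnight compound exposure at 37 °C.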
HIV Env fusion: inhibitors of HIV-1 Env-driven cell-cell fusion, primary screen, HeLa-JRFL effector, CEM21 target cells, luciferase; AID 651610, 2012; 1.1% of 360,000 active; inhibition, % at 12.3 µM;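 active = mean replicate inhibition score of at least 50 and every replicate individually at or above 50; inconclusive = only one of the two criteria met; inactive = mean below 50 and not all replicates reaching 50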;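 also: 0% = plate neutral controls and 100% = maraviroc near 300 nM; one replicate is shown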
Rce1 inh: yeast Rce1p protease inhibitors, primary screen, biochemical, fluorescence, cell-free homogeneous; CAAX prenyl protease 2 (Saccharomyces cerevisiae (strain ATCC 204508 / S288c)), Q03530; yeast membranes, quenched prenylated peptide cleavage fluorescence; calls only; 0.27% of 290,000 active; AID 2563, 2010;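 active = fall in fluorescence gain of 50% or more versus controls, with final raw signal at or below 3038400; inconclusive = same 50% fall but final raw signal above 3038400; inactive = fall in fluorescence gain under 50%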;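 also: plate controls were neutral control wells for no effect and wells lacking membranes for full effect; tested at 10 µM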
PABP FP inh: PABP poly(A) RNA binding inhibitors, primary screen, biochemical, fluorescence polarization, uHTS | Polyadenylate-binding protein 1 (Homo sapiens), P11940 | 1% of 290,000 active | inhibition, % at 35 µM;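 active = 50% or more with normal probe brightness, or confirmed in later tests; inconclusive = above 50% with abnormal brightness, or retests that disagree; inactive = below 50% or failed in later tests; about a fifth of its hits are not listed in these tables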;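 also: calls also rest on retests at 20 µM and on dose response follow-up; controls were probe without protein and protein plus probe with vehicle; some compounds called inactive have numbers as strong as hits; many hits fall short of the cut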
Target sequence (P11940 whole entry, looked up): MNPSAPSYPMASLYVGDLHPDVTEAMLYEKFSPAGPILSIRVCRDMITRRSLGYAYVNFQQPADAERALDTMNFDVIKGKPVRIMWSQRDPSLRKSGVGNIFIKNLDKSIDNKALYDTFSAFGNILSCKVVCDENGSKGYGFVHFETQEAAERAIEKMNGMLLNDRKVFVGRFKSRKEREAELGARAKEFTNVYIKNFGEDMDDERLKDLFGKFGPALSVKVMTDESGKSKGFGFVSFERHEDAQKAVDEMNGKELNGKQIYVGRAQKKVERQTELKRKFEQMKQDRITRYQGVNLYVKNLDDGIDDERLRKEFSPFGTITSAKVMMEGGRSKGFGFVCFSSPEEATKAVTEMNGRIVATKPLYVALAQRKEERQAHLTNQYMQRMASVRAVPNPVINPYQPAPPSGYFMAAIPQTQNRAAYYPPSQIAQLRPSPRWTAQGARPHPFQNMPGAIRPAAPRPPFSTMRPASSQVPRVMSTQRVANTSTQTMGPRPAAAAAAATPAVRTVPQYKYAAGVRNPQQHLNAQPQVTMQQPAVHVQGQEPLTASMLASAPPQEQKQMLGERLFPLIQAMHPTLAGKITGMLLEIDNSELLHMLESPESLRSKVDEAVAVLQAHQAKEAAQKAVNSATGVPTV
Yeast UUG start: modulators of yeast start codon fidelity, primary screen, whole organism, S. cerevisiae, single point, plate reader | 0.13% of 350,000 active | S. cerevisiae UUG-firefly luciferase reporter, luminescence/redox ratio | activity score, % at 18.7 µM;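 active = replicate mean at a twofold rise or more, about +100% in these data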;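 also: firefly luciferase made from a UUG start codon reports start codon fidelity; reporter light over untreated wells divided by growth signal over untreated wells; some hits fall short of that in this replicate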
eIF4H FP inh: human eIF4H binding inhibitors, primary screen, translation initiation inhibitor project, biochemical, uHTS, fluorescence polarization; Eukaryotic translation initiation factor 4H (Homo sapiens), Q15056; eIF4H fluorescence polarization binding assay; inhibition, % at 35 µM; 0.94% of 290,000 active;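 active = 50% or more with normal probe brightness, or confirmed in later tests; inconclusive = above 50% with abnormal brightness, or retests that disagree; inactive = below 50% or failed in later tests; about a fifth of its hits are not listed in these tables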;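 also: calls also rest on retests at 20 µM and on dose response follow-up; 0% = protein and probe with vehicle and 100% = probe without protein; strong numbers were not always called active; many hits fall short of the cut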
eIF4H FP inh retest: second read-out of eIF4H FP inh, no call of its own (marks repeat the call); inhibition, %; compound at 20 µM; confirmation average;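 mean of two retest wells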
PABP FP inh retest: also measured in PABP FP inh; calls as there; inhibition, %; compound at 20 µM; confirmation repeats;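 mean of two retest wells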
MT1-MMP act inh RFP: further read-out of MT1-MMP act inh, marked with its call; RFP signal change, %; measured here: RFP expression control read;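 0 = vehicle wells; hits needed this value within 50% of zero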
An asterisk follows results filed as active; i = inactive; ? = inconclusive; · = no result given; & = joins results of further samples; [ ] = dose if it differs, or a comment. The list is partial; the hit share may differ from the screen's.

Start of the listing, in advance:
SMILES	CSC inhib	MT1-MMP act inh	MT1-MMP act inh RFP	HIV Env fusion	Rce1 inh	PABP FP inh	Yeast UUG start	eIF4H FP inh	others
CCCCCCc1nc2c(=O)[nH]c3ccccc3c2o1	4	3	5	-103	i	5	·	6
Cc1cc([N+](=O)[O-])ccc1NCc1cccc2ccccc12	39	-3	-11	·	i	·	-6	·
COc1c[nH]n(-c2ccccc2)c(=O)c1=O	-10	2	3	20	i	·	·	·
CC1CC1C(=O)OCC(=O)Nc1cccc(S(=O)(=O)NC2=NCCCCC2)c1 (centres undefined)	-14	0	3	-39	i	8	-14	3

The list itself, from the start:
SMILES	CSC inhib	MT1-MMP act inh	MT1-MMP act inh RFP	HIV Env fusion	Rce1 inh	PABP FP inh	Yeast UUG start	eIF4H FP inh	others
CCCCCCc1nc2c(=O)[nH]c3ccccc3c2o1	4	3	5	-103	i	5	·	6
Cc1cc([N+](=O)[O-])ccc1NCc1cccc2ccccc12	39	-3	-11	·	i	·	-6	·
COc1c[nH]n(-c2ccccc2)c(=O)c1=O	-10	2	3	20	i	·	·	·
CC1CC1C(=O)OCC(=O)Nc1cccc(S(=O)(=O)NC2=NCCCCC2)c1 (centres undefined)	-14	0	3	-39	i	8	-14	3
CC(=O)Nc1ccc(NC(=O)COC(=O)C2CCC(C(C)(C)C)CC2)cc1 (centres undefined)	·	4	0	-8	·	·	7	·
CCN(CC)CCN1C(=O)C(=O)/C(=C(/O)c2ccc(S(=O)(=O)N3CCOCC3)cc2)C1c1ccc(Cl)cc1 (centres undefined)	-9	2	1	1	i	-5	2	-11
C[C@H](CO)N1C[C@H](C)[C@@H](CN(C)C(=O)Nc2ccc3c(c2)OCO3)Oc2ccc(NC(=O)CCC(F)(F)F)cc2C1=O	·	-3	4	-11[16.7 µM]	·	·	18&5	·
CC(C)(C)C(=O)c1sc(Nc2ccccc2)nc1N	13	-13	-11	·	i	-1	0	-7
Nc1nc2nc(-c3ccc(Cl)cc3)cc(C(F)(F)F)n2n1	-5	9	5	·	i	-5	·	4
C[C@@H]1CN([C@@H](C)CO)C(=O)CCCn2nncc2CO[C@@H]1CN(C)C(=O)Cc1ccccc1	·	0	1	1	·	·	16&16	·
COC(=O)c1ccncc1C(=O)Nc1ccc(F)cc1	-20	0	0	·	i	-2	·	5
COc1ccccc1N1CCN(C(=O)c2cc(-c3ccc4c(c3)OCO4)on2)CC1	17	9	-1	·	i	-4	·	-10
O=C(NC(Cc1c[nH]c2ccccc12)C(=O)O)/C(=C/c1ccco1)NC(=O)c1ccccc1 (centres undefined)	-2	-14	4	21	i	16	·	12
CC1(C(=O)Nc2cnc3ccccc3c2)CCN1Cc1ccccc1OC(F)F (centres undefined)	·	4	-5	-7	·	·	-11	·
Cc1ccccc1N=C(NO)c1nonc1N	-3	3	7	0	i	-8	·	-5
Cn1c(N)c(C(=O)c2cc(-c3ccccc3)nc3ccccc23)c(=O)n(C)c1=O	29	-2	-1	·	i	0	-11	9
CCOc1ccc(-c2cc(C(=O)NCc3ccccc3)[nH]n2)c(C)c1	·	3	-3	-22	·	·	-16	·
COc1cc(OC)cc(C(=O)N[C@H](C(=O)OCC(=O)NC(=O)NC(C)(C)C)C(C)C)c1	·	-2	-4	-17	i	-1	-7	3
O=C(Nc1ccc(C(F)(F)F)cc1)C1(c2ccccc2)CC1	9	2	1	·	i	2	·	-13
O=C(C1CC(=O)N(c2ccc3c(c2)OCCO3)C1)N1CCN(c2cccc(C(F)(F)F)c2)CC1 (centres undefined)	-5	0	-5	11	i	·	-3	·
CCN1C(=O)/C(=C\N2CCN(c3ccc(F)cc3)CC2)SC1=S	3	3	-5	·	i	-1	-16	1
CCOC(=O)c1nn(-c2ccc(C)cc2)c2nc(Nc3ccccc3)cc(=O)n12	-11	3	2	·	i	-20	-5	2
COC(=O)CCC(=O)Nc1ccccc1C(N)=O	-3	-2	3	-11	·	-9	-11	5
O=c1n(-c2ccccc2)c(=O)n2n1CC(O)C2	-25	6	5	-10	i	-6	-11	6
COC(=O)c1ccccc1NC(=O)COc1ccc2c(c1)OCO2	20	-3	-3	9	i	14	-5	-9
Cc1oc2c(CN3CCCC(C)C3)c(O)ccc2c(=O)c1-c1ccccc1 (centres undefined)	-8	0	2	-13	i	-7	-2	-1
OCC1(CCc2ccccc2)CCN(Cc2cc(Cl)ccc2O)CC1	6	1	0	18	i	-11	-3	-21
N/C(=N\OC(=O)C12CC3CC(CC(C3)C1)C2)c1cccnc1	38	-1	-6	·	i	0	-17	-6
Cc1cccc(CN2CCN(C(=O)c3ccccc3F)CC2)c1	2	-7	-3	·	·	22	-15	-7
O/N=C(\c1ccc(Cl)cc1)c1ncc(C(F)(F)F)cc1Cl	-5	5	-4	·	i	-2	-2	7

Not a retest: entries from further up.
SMILES	CSC inhib	MT1-MMP act inh	MT1-MMP act inh RFP	HIV Env fusion	Rce1 inh	PABP FP inh	Yeast UUG start	eIF4H FP inh	others
Cc1oc2c(CN3CCCC(C)C3)c(O)ccc2c(=O)c1-c1ccccc1 (centres undefined)	-8	0	2	-13	i	-7	-2	-1
OCC1(CCc2ccccc2)CCN(Cc2cc(Cl)ccc2O)CC1	6	1	0	18	i	-11	-3	-21
N/C(=N\OC(=O)C12CC3CC(CC(C3)C1)C2)c1cccnc1	38	-1	-6	·	i	0	-17	-6
Cc1cccc(CN2CCN(C(=O)c3ccccc3F)CC2)c1	2	-7	-3	·	·	22	-15	-7
O/N=C(\c1ccc(Cl)cc1)c1ncc(C(F)(F)F)cc1Cl	-5	5	-4	·	i	-2	-2	7

Continued.
SMILES	CSC inhib	MT1-MMP act inh	MT1-MMP act inh RFP	HIV Env fusion	Rce1 inh	PABP FP inh	Yeast UUG start	eIF4H FP inh	others
COc1ccc(OC)c(NC(=O)C2CC(/C=C/c3ccccc3)=NO2)c1 (centres undefined)	-1	-2	1	-1	i	-4	-16	-7
O=C(NCC(c1ccco1)N1CCc2ccccc2C1)c1ccc([N+](=O)[O-])cc1 (centres undefined)	-4	3	4	-10	i	·	-10	·
OC[C@@H]1CN(Cc2cccc(C(F)(F)F)c2)C[C@H](n2cnc3c(NCc4ccncc4)ncnc32)O1	·	0	1	18	·	·	-13	·
O=C(NCc1cccnc1)c1ccc(-c2cccc(Cl)c2Cl)o1	0	3	-3	11	i	1	·	-8
CSc1nnc(-c2ccccc2)o1	-7	1	1	-6	i	8	-18	-16
CC1CCN(CCCNC(=O)c2ccc(CSCc3cccc(Cl)c3)o2)CC1	9	3	1	-1	i	-13	-16	-1
CC(C)C(=O)NNC(=O)CC(=O)Nc1ccccc1C(=O)O	-14	2	3	-2	i	4	·	-4
CNC(=O)c1c(NC(=O)CCS(=O)(=O)c2ccc(C)cc2)sc(C)c1C	10	3	3	10	i	·	-1	·
COc1ccc(NC(=O)c2noc3c2CCCCC3)cc1	-4	0	-2	-100	i	8	1	-1
CCCCN(C(=O)c1ccco1)c1c(N)n(CCC)c(=O)[nH]c1=O	-23	2	4	6	·	·	-6	·
CCN(CC)C(=O)c1c(C)[nH]c(=S)c(C#N)c1-c1ccco1	-5	-5	7	11	i	-5	·	29
Cc1cc(N2CCCCC2)n2nc(C)c(-c3ccccc3)c2n1	1	-3	-16	·	i	1	-9	-4
c1ccc2c(c1)[nH]c1c(N3CCCC3)ncnc12	·	8	-18	·	i	-5	0	8
CC[C@]1(C(=O)OC)[C@H]2C(=O)N(C)C(=O)[C@H]2[C@H]2CN=C(SC)N21	·	6	9	10	·	·	-30	·
OC(c1ccc(F)c(F)c1)c1nc(-c2csc3ccccc23)cs1 (centres undefined)	·	5	2	10	·	·	-4	·
Cc1ccc(C)c(NC(=O)c2cnn(-c3ccccc3)c2C)c1	-7	3	1	0	i	-5	-14	-7
Cc1nn(Cc2ccccc2)c(C)c1NC(=O)c1cc(-c2cccs2)on1	-6	-3	-8	12	i	4	-9	-3
Cc1nn(C(=O)c2cccs2)c(C)c1CN1C(=O)c2ccccc2C1=O	-9	3	-3	·	i	8	3	1
S=C(NCc1ccccc1)NCc1ccc(CNC(=S)NCc2ccccc2)cc1	14	8	-3	·	i	-4	-17	-12
CCCn1c(SCC(=O)Nc2nc(-c3ccc(OC)cc3)cs2)nc2c1c(=O)n(C)c(=O)n2C	11	6	4	2	i	-17	·	-4
CC(C)c1onc(C(=O)N(C)Cc2ccccc2)c1[N+](=O)[O-]	-9	4	4	-8	i	-8	-25	1
CCc1ccc(OCC(=O)O/N=C(\N)Cc2ccc([N+](=O)[O-])cc2)cc1	2	2	6	-2	i	-6	·	-6
CC(=O)c1cc(C#N)c(SCC(=O)O)nc1C	-5	2	4	·	i	10	-10	2
CCc1nnc(NS(=O)(=O)c2ccc(NC(=S)NC(=O)c3ccc(F)cc3)cc2)s1	·	-3	0	8	i	119	·	0.6*	eIF4H FP inh retest=56*;PABP FP inh retest=11
CCCCOc1ccc(-c2nnc(-c3ccncc3)o2)cc1	9	-1	-8	-39	i	-3	-27	-4
COc1cc(C(=O)COC(=O)c2ccncc2)cc(OC)c1OC	8	-4	2	-2	·	·	-25	·
CCCC(CCC)C(=O)Nc1ccc2c(c1)N(C(=O)CN1CCN(C)CC1)c1ccccc1CC2	-2	4	-4	-19	i	-9	·	-7
COc1ccc(-c2nnc(NC(=O)c3ccc(S(=O)(=O)N4COCC4(C)C)cc3)o2)cc1	29	3	-2	·	i	-4	-32	1
CS(=O)(=O)Nc1ccc(C(=O)NCCSc2ccc(Cl)cc2)cc1	-2	-1	2	-16	i	-1	-10	2
O=C(Nc1nc2ccccc2s1)c1ccc2c(c1)S(=O)(=O)c1ccccc1C2=O	·	·	·	-6	·	2	·	-13
CCn1c(SCC(=O)N/N=C/c2ccc(C)o2)nnc1-c1ccccc1	-4	-4	-12	-50	i	6	-1	6
Cc1cc2c(N=NC(=O)CCc3ccccc3)c(O)[nH]c2cc1Br	9	1	-2	-146	i	6	·	5
COc1ccc(S(=O)(=O)N(CC(=O)NCC2CCCO2)c2ccccc2)cc1OC (centres undefined)	11	-2	1	-16	i	-15	-21	-8
Cc1cc(C2C(C#N)=C(N)SC(N)=C2C#N)c(C)s1	-8	-140	12	·	i	?	-13	?
O=C(NCCCN=C1NS(=O)(=O)c2ccccc21)c1ccncc1	·	-3	2	-36	i	-1	-26	5
CCOc1ccc(NC(=O)[C@@H](NC(=O)c2ccco2)C(C)C)cc1	-17	-5	-1	-6	i	0	·	-1
CS(=O)(=O)N(CC(=O)NCCSCc1cccc(Cl)c1)c1ccc2c(c1)OCO2	3	-2	-2	·	i	6	1	4
O=S(=O)(c1ccccc1Br)N1CCN(c2ncccn2)CC1	·	5	3	9	i	2	4	-2
